# Compound activity: PubChem, several laboratories
# A1 inh: inhibitors of the anti-apoptotic protein A1, read as caspase activation | MEF A1-2A-BIM cells, Caspase-Glo 3/7 luminescence, 3 h; percent of clofoctol response, vehicle zero | caspase activation, % (concentration not given with the values) | 330,000 compounds, 0.066% hits;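 active = over half of replicate activation scores above 10%, or exactly half above 10 with the replicate mean above 10; inconclusive = replicate mean below 10 yet half the replicates above 10; inactive = over half of replicates below 10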;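 also: wells of about 30 µL received 50 nL stock; many hits fall short of the cut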
# Calb FLC: affects C. albicans growth with fluconazole. 300,000 compounds, 0.57% hits. growth inhibition, % (test concentration not listed). C. albicans CaCi-2 (fluconazole-resistant clinical isolate) + fluconazole, Alamar Blue growth, 48 h. AID 1979;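 active = most replicates above 75%; inconclusive = exactly half above 75%; inactive = most below 75%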;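 also: all wells also contain fluconazole at 8 µg/ml as a sub-toxic cotreatment; 0% = median of DMSO wells and 100% = median of geldanamycin control wells; wells of about 8 µL received 7.5 nL stock; the first replicate is given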
# Ecoli rRNA inh: selective bacterial rRNA inhibition in E. coli; 350,000 compounds, 1.6% hits; E. coli WT GFP vs humanized-ribosome RFP mutants, fluorescence, 24 h; active compounds read low; DMSO median 0, no signal -100; GFP signal change (wild-type ribosome), % (no concentration beside the values);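 active = significant combined selectivity score with lowered wild-type GFP, culture density cut under 30%, mutant RFP and density less affected; inactive = any of these conditions unmet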; also: one replicate is shown; some compounds called inactive have numbers as strong as hits
# Beta apoptosis: beta cell apoptosis inhibition. INS-1E cytokine-induced death, ATP luminescence, 48 h; percent of positive-control rescue, neutral wells zero. protection from apoptosis, % (no concentration beside the values). 300,000 compounds, 0.8% hits. AID 435005;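 active = all replicates at 75% or more, or half of them and the mean; inconclusive = half reach 75% but not the mean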;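 also: 0% = cytokine-treated negative control wells and 100% = positive control rescue; higher means more ATP so stronger rescue from cytokine killing; wells of about 40 µL received 100 nL stock; the first replicate is given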
# RanGTP-Impb inh: inhibitors of RanGTP-importin-beta interaction, primary screen, biochemical, FRET, CFP-Ran, YFP-importin-beta, homogeneous; cell-free CFP-Ran/YFP-importin-beta FRET ratio; inhibition, % (test concentration not listed); AID 2216; 300,000 compounds, 1.1% hits;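 active = most replicates above 15%; inconclusive = exactly half above 15%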;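 also: 0% = DMSO wells and 100% = Ran loaded with GDP instead of GTP; wells of about 40 µL received 100 nL stock; the first replicate is given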
# Vif TR-FRET: HIV-1 Vif–A3G interaction blockers – biochemical, TR-FRET, GST-Vif 1-94, biotin-A3G peptide, dose response retest, primary screen (AID 1117319); TR-FRET GST-Vif / biotin-A3G peptide binding; higher % means a stronger effect; test concentration not given here; strong numbers were not always called active; inhibition, %; hits with a dose series show IC50 in µM; 260,000 compounds, 0.57% hits;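 active = above the screen mean plus three standard deviations and confirmed in dose response; inconclusive = results disagree or hit not tested in dose response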;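 also: Vif residues 1-94 fused to GST binding biotinylated APOBEC3G peptide 110-148; 0% = full assay without inhibitor and 100% = GST in place of GST-Vif; retest series ran down from 100 µM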
# T cruzi inh: blocks replication of Trypanosoma cruzi. T. cruzi beta-gal in NIH3T3, luminescence, 90 h. inhibition, % (test concentration not listed). 300,000 compounds, 1.4% hits. AID 1885;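 active = mean inhibition across valid replicates above about 55%, limit read from the data; inconclusive = mean below that limit but half or more replicates reach it; inactive = mean below it, under half of replicates reach it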;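 also: signal also drops with host cell toxicity which is not excluded here; 0% = plate median of DMSO wells and 100% = zero luminescence signal; higher percent means less beta-gal luminescence so fewer parasites; stock transfer was 50 nL into about 50 µL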
# AF4-AF9 inh: MLL-AF4/AF9 protein interaction inhibition; inhibition, % at 10 µM; AID 651704; 350,000 compounds, 0.47% hits; AlphaScreen, biotin-AF4 peptide binding to FLAG-AF9; P42568;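 active = every replicate reaching a set inhibition limit, whatever the replicate mean, cut at about 25% in these data; inconclusive = mean inhibition reaches that limit but some replicates miss it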;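 also: 0% = plate neutral control median and 100% = total signal loss; the record names both 10 and 1 µM as test concentration; the first replicate is given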
# Target sequence (P42568 whole entry, looked up): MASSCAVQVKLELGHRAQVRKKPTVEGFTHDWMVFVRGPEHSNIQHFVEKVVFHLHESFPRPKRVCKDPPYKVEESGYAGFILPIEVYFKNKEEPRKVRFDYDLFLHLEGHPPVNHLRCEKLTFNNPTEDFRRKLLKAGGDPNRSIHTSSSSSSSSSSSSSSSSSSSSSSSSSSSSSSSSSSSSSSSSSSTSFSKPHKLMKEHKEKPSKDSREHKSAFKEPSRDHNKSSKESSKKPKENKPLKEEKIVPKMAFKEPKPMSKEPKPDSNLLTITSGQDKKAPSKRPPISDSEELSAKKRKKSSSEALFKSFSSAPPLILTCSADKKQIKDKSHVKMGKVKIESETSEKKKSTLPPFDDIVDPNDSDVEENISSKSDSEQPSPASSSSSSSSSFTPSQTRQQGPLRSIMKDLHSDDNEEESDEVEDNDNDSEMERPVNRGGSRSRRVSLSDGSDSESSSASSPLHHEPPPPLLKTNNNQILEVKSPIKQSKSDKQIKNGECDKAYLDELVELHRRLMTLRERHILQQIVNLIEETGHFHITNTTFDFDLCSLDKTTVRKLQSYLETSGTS
# Ecoli rRNA inh OD600: recorded beside Ecoli rRNA inh, whose call it bears; OD600 change, %; measured here: OD600 growth;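 optical density of the mix in the first replicate; 0 = DMSO median and -100 = no signal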
# Ecoli rRNA inh RFP: recorded beside Ecoli rRNA inh, whose call it bears; RFP signal change, %; measured here: RFP humanized mutant strains;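 first replicate; 0 = DMSO median and -100 = no signal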
# * marks the source's active call; other numbers are inactive results; ? = inconclusive; nt = no result given.
SMILES,A1 inh,Calb FLC,Ecoli rRNA inh,Ecoli rRNA inh OD600,Ecoli rRNA inh RFP,Beta apoptosis,RanGTP-Impb inh,Vif TR-FRET,T cruzi inh,AF4-AF9 inh
COc1ccc(CCNC(=O)C(=O)c2c(C)n(C)c3ccccc23)cc1OC,0.5,-3,-5,-2,-3.3,nt,-2.4,-6%,-8,-3.5
Nc1nc(SCC(=O)Nc2ccccc2Sc2ccccc2)n[nH]1,1.3,10,nt,nt,nt,0,-4.0,2%,-1,nt
CCOC(=O)C1=C(CSc2nc(CC)c(C)cc2C#N)OC(N)=C(C#N)C1c1ccccc1 (stereo unspecified),0.1,-1,nt,nt,nt,-6,22*,3%,-3,nt
Cc1nc2nc(-c3ccccc3)[nH]n2c(=O)c1C,1.6,-3,5,10,-3.7,3,8.0,22%,-6,1.0
O=C(COC(=O)/C=C/c1ccc(F)cc1)NCC1CCCO1 (stereo unspecified),0.4,nt,2,5,-1.3,-1,nt,nt,nt,-2.7
Cn1c(SCc2ccccc2)nc2c1c(=O)[nH]c(=O)n2C,1.1,-2,11,12,-2.9,-3,-0.6,-5%,-14,0.1
Cc1cc(C)c(NC(=O)CSc2nnc(-c3ccco3)n2N)c(C)c1,-0.1,-3,nt,nt,nt,-4,2.4,15%,-11,nt
COCCCn1c(C(=O)N2CCOCC2)cc2c(=O)n3ccccc3nc21,0.4,6,1,12,3.6,-2,0.5,nt,-2,-0.2
Cc1cc(C)cc(Oc2c(C(F)(F)F)oc3cc(OCC(=O)O)ccc3c2=O)c1,1.5,-6,1,21,0.5,0,-1.3,4%,-1,1.3
COc1ccc(OC)c(S(=O)(=O)Nc2cccc3ccc(O)cc23)c1,1.0,-2,-32*,-2.8*,3.2*,-7,3.0,nt,-14,4.8
COc1cc(NC(=O)CSc2nnc3ccccn23)cc(OC)c1,1.1,nt,2,16,6.5,-4,nt,-3%,nt,-7.2
CCOC(=O)c1ccc(NC(=O)c2ccc3c(c2)C(=O)N(CC2CCCO2)C3=O)cc1 (stereo unspecified),-2.5,-1,5,3,-4.0,nt,-3.5,nt,3,-0.1
COc1ccccc1N1CCN(S(=O)(=O)c2ccc(-c3ccc(=O)[nH]n3)o2)CC1,-0.9,28,-2,-4,0.1,-4,-1.0,nt,10,-0.8
COc1ccc(C2=C/C(=C\c3cccc(OC(C)=O)c3)C(=O)O2)cc1,-0.7,-9,10,14,4.5,-1,43*,24%,-18,-4.6
CC(=O)c1ccc(NC(=O)CC2S/C(=N/N=C3CCCCCC3)NC2=O)cc1 (stereo unspecified),nt,-4,1,9,0.7,nt,-0.5,6%,0,0.8
CCCCCC1CC(CC(=O)Nc2ccc([N+](=O)[O-])cc2)OC1=O (stereo unspecified),-0.6,-3,-7,-5,0.4,3,7.9,nt,7,0.7
O=C(c1ccco1)N1CCN(S(=O)(=O)c2ccc(S(=O)(=O)NC3CC3)cc2)CC1,0.4,-2,5,1,1.0,2,-0.6,6%,-1,-29
COc1cc(C(=O)COC(=O)C2CCN(c3ccc(C(F)(F)F)cn3)CC2)ccc1OC(F)F,0.5,nt,0,-1,-1.4,-3,1.8,-2%,9,-12
CCOC(=O)C1CCN(S(=O)(=O)c2cc(F)ccc2OC)CC1,-0.3,-7,0,7,3.1,-5,-2.3,2%,-3,-3.7
Cc1c(NC(=O)CSc2ccc3c(c2)OCCO3)c(=O)n(-c2ccccc2)n1C,-0.3,-2,nt,nt,nt,-5,3.5,1%,-4,nt
COc1cc(NC(=S)NN2CCN(C)CC2)cc(OC)c1OC,1.0,-17,17,18,1.6,1,?,nt,-6,-4.4
NC(=O)[C@@H]1CCCN1C(=O)c1ccc2nc(Cc3cccc(Cl)c3)oc2c1,1.0,1,0,1,-3.0,-7,-1.5,-1%,1,-0.2
CSCCC(NC(=O)c1ccccc1)C(=O)Nc1ccc(C)cc1 (stereo unspecified),1.1,-16,8,3,1.0,-2,-2.8,nt,5,2.1
CCOC(=O)CC1(NC(=O)C2CCC(=O)N(Cc3ccccc3OC)C2)CCCCC1 (stereo unspecified),0.6,-48,6,8,-1.5,-4,0.4,nt,8,0.0
COc1cccc(/C=C/C(=O)Nc2ccc3c(c2)OCCO3)c1OC,-4.0,-7,-25,-25,-0.7,-8,0.3,nt,-1,5.7
O=C(CCCn1cnc([N+](=O)[O-])n1)Nc1cccc(Cl)c1Cl,-0.2,-6,nt,nt,nt,-6,-2.2,-3%,41,nt
COc1ccc(N2C(=O)CC(c3cc(OC)c(OC)c(OC)c3)CC2=O)cc1,0.5,-1,2,3,-0.1,-1,-0.2,nt,-13,-4.8
c1csc(C(c2nnnn2C2CCCCC2)N2CCCC3(CCCCC3)C2)c1 (stereo unspecified),0.4,11,nt,nt,nt,-8,-1.6,5%,45,nt
CCOc1ccc(Cn2c(C)nc([N+](=O)[O-])c2SCC(O)CCl)cc1[N+](=O)[O-] (stereo unspecified),0.1,-4,-7,-9,8.1,-11,-0.6,-5%,17,7.6
CSC(=S)NCc1cccnc1,-1.3,88*,8,13,-1.2,9,-4.8,-5%,-9,-4.6
CCn1c(/C(C#N)=C(\O)CCc2ccccc2)nc2ccccc21,0.7,3,nt,nt,nt,13,14,8%,3,nt
N#Cc1cc2ccccc2nc1SCC(=O)NC1CC1,2.1,-4,8,5,-2.6,-8,0.6,-25%,1,2.9
N#CC1=C(SCc2ccccc2Cl)NC(=O)C(C(N)=O)C1 (stereo unspecified),-1.5,6,1,0,0.0,-7,1.8,?,-2,-5.5
CCCCn1c(SCC2CCCCO2)nc2cc(S(N)(=O)=O)ccc21 (stereo unspecified),0.6,12,nt,nt,nt,nt,-1.2,-1%,9,nt
CCn1c(N2CCN(CC(=O)c3c(C)n(C)c4ccccc34)CC2)nc2c1c(=O)[nH]c(=O)n2C,-0.6,-3,nt,nt,nt,10,-0.7,2%,10,nt
CCCCCC(=O)Nc1cccc(C2=NOC3(C2)C[C@@H](C(N)=O)N(C(=O)c2cc([N+](=O)[O-])cc([N+](=O)[O-])c2)C3)c1 (stereo partly specified),-0.7,34,14,5,2.0,5,7.5,16%,21,6.5
CCC1CCCCN1S(=O)(=O)c1ccccc1[N+](=O)[O-] (stereo unspecified),0.0,20,-37,-36,-5.5,-2,-0.5,-10%,2,3.4
Cc1ccc(N/N=C(\C#N)C(=N)N2CCOCC2)cc1,-0.4,-12,13,17,3.2,-3,4.2,7%,-4,4.6
CCCCS(=O)(=O)N1CCCC(C(=O)NCCc2ccccc2)C1 (stereo unspecified),-0.1,-3,3,7,2.3,-9,3.5,nt,-9,-2.4
Cc1ccc(OC(=O)c2cncc(Br)c2)c(C)c1,-0.3,11,0,4,-1.9,-4,0.7,nt,-7,-1.5

# Compound profiles (already shown). Order of screens: A1 inh | Calb FLC | Ecoli rRNA inh | Ecoli rRNA inh OD600 | Ecoli rRNA inh RFP | Beta apoptosis | RanGTP-Impb inh | Vif TR-FRET | T cruzi inh | AF4-AF9 inh
# Profile of NC(=O)[C@@H]1CCCN1C(=O)c1ccc2nc(Cc3cccc(Cl)c3)oc2c1 : 1.0 | 1 | 0 | 1 | -3.0 | -7 | -1.5 | -1% | 1 | -0.2
# Profile of CCC1CCCCN1S(=O)(=O)c1ccccc1[N+](=O)[O-] (stereo unspecified) : 0.0 | 20 | -37 | -36 | -5.5 | -2 | -0.5 | -10% | 2 | 3.4
# Profile of COc1ccc(N2C(=O)CC(c3cc(OC)c(OC)c(OC)c3)CC2=O)cc1 : 0.5 | -1 | 2 | 3 | -0.1 | -1 | -0.2 | nt | -13 | -4.8
# Profile of N#CC1=C(SCc2ccccc2Cl)NC(=O)C(C(N)=O)C1 (stereo unspecified) : -1.5 | 6 | 1 | 0 | 0.0 | -7 | 1.8 | ? | -2 | -5.5

# An excerpt of these results, with two lines to a compound.
# The line under a structure holds: A1 inh, Calb FLC, Ecoli rRNA inh, Ecoli rRNA inh OD600, Ecoli rRNA inh RFP, Beta apoptosis, RanGTP-Impb inh, Vif TR-FRET, T cruzi inh, AF4-AF9 inh
- CCC1CCCCN1S(=O)(=O)c1ccccc1[N+](=O)[O-] (stereo unspecified)
→ 0.0, 20, -37, -36, -5.5, -2, -0.5, -10%, 2, 3.4
- CCCCn1c(SCC2CCCCO2)nc2cc(S(N)(=O)=O)ccc21 (stereo unspecified)
→ 0.6, 12, nt, nt, nt, nt, -1.2, -1%, 9, nt
- CCn1c(/C(C#N)=C(\O)CCc2ccccc2)nc2ccccc21
→ 0.7, 3, nt, nt, nt, 13, 14, 8%, 3, nt
- CCn1c(N2CCN(CC(=O)c3c(C)n(C)c4ccccc34)CC2)nc2c1c(=O)[nH]c(=O)n2C
→ -0.6, -3, nt, nt, nt, 10, -0.7, 2%, 10, nt
- CSCCC(NC(=O)c1ccccc1)C(=O)Nc1ccc(C)cc1 (stereo unspecified)
→ 1.1, -16, 8, 3, 1.0, -2, -2.8, nt, 5, 2.1
- COc1cc(NC(=S)NN2CCN(C)CC2)cc(OC)c1OC
→ 1.0, -17, 17, 18, 1.6, 1, ?, nt, -6, -4.4
- O=C(CCCn1cnc([N+](=O)[O-])n1)Nc1cccc(Cl)c1Cl
→ -0.2, -6, nt, nt, nt, -6, -2.2, -3%, 41, nt

# Next section.
SMILES,A1 inh,Calb FLC,Ecoli rRNA inh,Ecoli rRNA inh OD600,Ecoli rRNA inh RFP,Beta apoptosis,RanGTP-Impb inh,Vif TR-FRET,T cruzi inh,AF4-AF9 inh
Cc1c(OCC(=O)N(C)c2ccccc2)ccc2c3c(c(=O)oc12)CCC3,0.6,-6,-8,0,-2.6,1,1.7,nt,4,32*
Cc1cc(Sc2nnc(N)s2)c2ccccc2n1,0.7,15,7,0,2.8,nt,-4.1,0%,16,-1.7
COc1ccccc1NC(=O)Nc1c(C)nn(C)c1C,0.4,-3,4,-10,-2.6,-8,0.3,20%,-13,-0.4
CC(C)(C)c1ccc(C(=O)NN2C(=O)CSC2=S)cc1,-0.2,12,-4,-3,22,0,6.9,-2%,0,-10
COc1ccc2[nH]c3nc(SCc4nnc(-c5ccccc5)o4)nnc3c2c1,0.0,-19,nt,nt,nt,7,-4.7,0%,-12,nt
O=[N+]([O-])c1ccc(/C=N/NC(=S)Nc2ccccc2C(F)(F)F)o1,-0.2,-5,nt,nt,nt,0,-2.5,nt,16,nt
NC(=O)CSc1nnc(-c2ccc(S(=O)(=O)N3CCCC3)cc2)n1Cc1ccco1,0.0,-17,-1,-6,1.3,nt,-2.4,9%,0,8.6
O=C(CN1c2ccccc2Sc2ccccc21)NNC(=S)Nc1ccc(Cl)cc1Cl,-0.3,-5,nt,nt,nt,18,-2.0,68%,-11,nt

# Not all compounds are listed; count on the stated rates, not on these rows.
